# Anesthetic bind – binds horse apoferritin like a general anesthetic. Potency, µM (top dose mostly 77.5 µM), for the others: top-dose activity change, negative = displacement, usual class: inhibitors. P02791. AID 485281. 350,000 tested, 0.074% active. apoferritin/1-aminoanthracene competitive binding, fluorescence; active means well fitted inhibition curve with a large enough effect; further: nearly all actives have a fitted effect of over 20% in size
# Target sequence (P02791 2-175 limits assumed): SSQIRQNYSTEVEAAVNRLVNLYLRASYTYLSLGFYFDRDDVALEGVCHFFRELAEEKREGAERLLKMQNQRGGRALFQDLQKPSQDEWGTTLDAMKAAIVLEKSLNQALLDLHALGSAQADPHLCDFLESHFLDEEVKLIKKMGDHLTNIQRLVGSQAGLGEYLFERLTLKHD
#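 Horse-spleen apoferritin (10 uM) in 50% saturated 1-aminoanthracene in PBS was incubated 10 min at room temperature with compound. Fluorescence (ex 380, em 535 nm) was normalized to free and bound 1-AMA, with concentration-response fitted by a four-parameter Hill equation.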
# Active calls of the source: *; & = joins results of further samples; [ ] = another dose, or the depositor's remark. On the % scale 0 is the no-effect control and ±100 the full control effect; potency means the concentration at half of the fitted maximal effect.
1: COc1ccccc1NCCC(=O)OCC(=O)NCc1ccco1
  Anesthetic bind: -6.0%

2: CN(C)c1cccc(C(=O)OCc2cc(=O)oc3cc(O)ccc23)c1
  Anesthetic bind: 43.5%[activator]

3: Cc1nnc(SCC(=O)NC(=O)NCc2ccco2)n1Cc1ccccc1
  Anesthetic bind: -6.2%

4: O=C(COC(=O)C1CC(=O)N(Cc2ccco2)C1)c1ccc(OC(=O)c2ccccc2)cc1 (stereo not drawn)
  Anesthetic bind: -14.4%

5: CC1=C(C(=O)O)N2C(=O)[C@@H](NC(=O)[C@H](N)c3ccccc3)[C@H]2SC1
  Anesthetic bind: 5.4%&3.5%

6: N[C@@H](CC(=O)O)C(=O)O
  Anesthetic bind: 15.3%

7: Cc1ccc(C(=O)OCC(=O)NCc2ccco2)s1
  Anesthetic bind: 1.4%

8: O=C(O)CC(O)(CC(=O)O)C(=O)O
  Anesthetic bind: 3.8%

9: Cc1cccc(Nc2nc(N)c([N+](=O)[O-])c(NCc3ccco3)n2)c1
  Anesthetic bind: -22.9%

10: NCC(=O)O
  Anesthetic bind: 17.7%

11: Cc1ccc(NC(=O)CN2C(=O)S/C(=C\c3ccc(OCC(=O)O)c(Br)c3)C2=O)cc1
  Anesthetic bind: -14.4%

12: COc1ccc(OCCC(=O)OCC(=O)NCc2ccco2)cc1
  Anesthetic bind: -9.9%

# Retrieved by structure from above, 2 records:
4: O=C(COC(=O)C1CC(=O)N(Cc2ccco2)C1)c1ccc(OC(=O)c2ccccc2)cc1 (stereo not drawn)
  Anesthetic bind: -14.4%

6: N[C@@H](CC(=O)O)C(=O)O
  Anesthetic bind: 15.3%

# An excerpt of these results, tab-delimited.
cpd	Molecule	Anesthetic bind
12	COc1ccc(OCCC(=O)OCC(=O)NCc2ccco2)cc1	-9.9%
3	Cc1nnc(SCC(=O)NC(=O)NCc2ccco2)n1Cc1ccccc1	-6.2%
1	COc1ccccc1NCCC(=O)OCC(=O)NCc1ccco1	-6.0%

# High-throughput results: PubChem BioAssay, National Center for Advancing Translational Sciences (NCATS)

# A portion of the library, and most or all hits are left out here.
